Vaccinia mCherry: qHTS for Stage-Specific Inhibitors of Vaccinia Orthopoxvirus: mCherry Reporter Primary qHTS; Vaccinia virus mCherry reporter infection, fluorescence; about a quarter of the inactives have no number; Potency, µM (highest dose often 36.5 µM), for the others: at the top dose activity change, negative = inhibition, most hits filed as inhibitors; 0.63% of 310,000 active; AID 720579, 2013; active = well fitted inhibition curve with a large enough effect; inconclusive = small, poorly fitted or top-dose-only effect; inactive = no such curve, though single readings can be large or run the other way; tested in A549 cells; further: nearly all actives have a fitted effect of over 35% in size; inactives centre near -10
VACV Venus inh: qHTS for Stage-Specific Inhibitors of Vaccinia Orthopoxvirus: Venus Reporter Primary qHTS; Vaccinia virus Venus reporter expression, fluorescence; Potency, µM (highest dose often 36.5 µM), for inactives: top-dose activity change, negative = inhibition, hits mostly inhibitors; 0.46% of 330,000 active; active means well fitted inhibition curve with a large enough effect; inconclusive means small, poorly fitted or top-dose-only effect; inactive means no such curve, though single readings can be large or run the other way; tested in A549 cells; further: nearly all actives have a fitted effect of over 30% in size; inactives centre near -10
An asterisk follows results filed as active; i = inactive; ? = inconclusive; / = not tested or not shown; & = joins results of further samples; [ ] = dose if it differs, or a comment. On the % scale 0 is the no-effect control and ±100 the full control effect; potency means the concentration at half of the fitted maximal effect.

SMILES	Vaccinia mCherry	VACV Venus inh
CCCCN1CNC(=S)N(CCc2ccc(OCC)c(OCC)c2)C1	-9%[7.34 µM]	-3%[7.34 µM]
Cc1ccc(C)c(CS(=O)(=O)c2cn(CC(=O)N3CCC(C)CC3)c3ccccc23)c1	-6%	-9%
CCC(CC)CN1CCC(CN2C(=S)NC[C@@H]2[C@@H](C)CC)CC1	-7%	-3%
CCOC(=O)c1ccc(Nc2nnc3nc(C)cc(C)n23)cc1	/	-8%
Cc1ccccc1-c1ccc2c(c1)O[C@@H](CN(C)Cc1ccc(C(=O)O)cc1)[C@@H](C)CN([C@H](C)CO)S2(=O)=O	-18%	-18%
O=P(NS(=O)(=O)c1ccc(Cl)cc1)(Oc1ccccc1)Oc1ccccc1	-12%	-8%
O=C(N/N=C/c1ccc(Br)o1)c1cc([N+](=O)[O-])cc([N+](=O)[O-])c1	?	?
CCCN1Cc2cccc(C(=O)NCc3ccc4c(c3)OCO4)c2C1=O	-20%	-15%
O=C(O)c1ccccc1-c1nc2ccccc2c(=O)n1O	-12%	-16%
CCN(CC)CCn1c(C)nc2ccccc21	i	-5%
CCOC(=O)c1c(-c2ccccc2)oc2ccc(OCc3ccccc3Br)cc12	-9%	-2%
Cc1nn(Cc2ccc(Cl)cc2Cl)c(C)c1NC(=O)c1sc2ccccc2c1Cl	-8%	1%
CC(OC(=O)c1ccncc1)C(=O)Nc1cccc([N+](=O)[O-])c1 (stereo not drawn)	-16%	-7%
CCOC(=O)c1c(C)oc2c1c1c(c3ccccc32)OCN(Cc2cccnc2)C1	-20%	-1%
Cc1ccc(S(=O)(=O)N2CCCN(C(=O)c3cc4ccccc4[nH]3)CC2)cc1	-28%	-26%
O=C(CCNS(=O)(=O)c1ccc(Br)cc1)NCCc1ccc(Cl)cc1	-7%	-13%
CCCCn1c(O)c(/C=C2/C=CC=N2)c(=O)[nH]c1=O	i[7.34 µM]	-1%[7.34 µM]
COc1cc2c(cc1OC)/C(=C/c1ccc(N(C)C)cc1)C=C2	-7%	-18%
COc1ccc(-c2csc(NC(=O)CCCc3nc4ccccc4c(=O)[nH]3)n2)cc1OC	-25%	-30%
CC(Oc1ccc(Cl)cc1Cl)C(=O)NCCCn1ccnc1 (stereo not drawn)	-12%	-13%
CC(=O)NCc1ccc(S(=O)(=O)N2CCN(c3ccccn3)CC2)cc1	-12%	-12%
CCc1c(C)c2ccc3c(c2oc1=O)CN(Cc1ccccc1)CO3	-8%	-10%
Cc1ccc(C(C(=O)NCC2CCCO2)N(C(=O)c2snc(C(N)=O)c2N)c2ccc3c(c2)OCCO3)cc1 (stereo not drawn)	-4%	-10%
Cc1ncoc1C(=O)N1CCc2c([nH]c3ccccc23)C1c1ccccc1F (stereo not drawn)	-5%	-3%
COCCC(=O)N1CCC(Oc2ccc(C(=O)NCc3ncc(C)[nH]3)cc2)CC1	-11%	-14%

Overlap with the part before: four compounds, then new ones.
SMILES	Vaccinia mCherry	VACV Venus inh
CCc1c(C)c2ccc3c(c2oc1=O)CN(Cc1ccccc1)CO3	-8%	-10%
Cc1ccc(C(C(=O)NCC2CCCO2)N(C(=O)c2snc(C(N)=O)c2N)c2ccc3c(c2)OCCO3)cc1 (stereo not drawn)	-4%	-10%
Cc1ncoc1C(=O)N1CCc2c([nH]c3ccccc23)C1c1ccccc1F (stereo not drawn)	-5%	-3%
COCCC(=O)N1CCC(Oc2ccc(C(=O)NCc3ncc(C)[nH]3)cc2)CC1	-11%	-14%
COCC(=O)N(Cc1cc2ccc(C)c(C)c2n2nnnc12)C1CCCC1	-11%	-10%
O=C(C[n+]1ccc(/C=C/c2c[nH]c3ccccc23)c2ccccc21)c1ccccc1	-14%	-4%
Cc1ccc(/C=C/C(=O)OCC(=O)NCc2ccccc2)o1	i	-10%
CC1=NC(C)(C)CC2CCC(O)C12 (stereo not drawn)	-14%	-1%
O=C1Nc2ccccc2C1=Nc1ccc(-c2nnc3n2CCCCC3)cc1	?	3%&10%
COc1ccc(CCNC(=S)N2CCN(S(=O)(=O)c3ccc(F)cc3)CC2)cc1	-14%	-8%
COc1ccc(C2=C(C)C(N3CCC(C(=O)Nc4cc(C)ccc4C)CC3)=NS2(=O)=O)cc1	?	?
CCOCCCNC(=O)/C(C#N)=C/c1cc(Br)c(O)c(Br)c1	-1%	-16%
CC(C)N1CCC1(C)C(=O)Nc1ccc(-n2cccc2)cc1 (stereo not drawn)	i	-3%
CCCCCn1c(=O)c2ccccc2n2c(CCl)nnc12	-9%	-4%
CN(C)S(=O)(=O)c1ccc(NC(=O)CSc2ncnc3ccccc23)cc1	?	?
NC(=O)c1cc2cc(Cl)ccc2o/c1=N/NC(=O)c1cccs1	i	-24%
O=C(Nc1cccc2ccccc12)C12CC3CC(C1)CC(n1cnc([N+](=O)[O-])n1)(C3)C2	/	?
CCCOc1ccc(C2c3c(oc4ccccc4c3=O)C(=O)N2c2nc(C)c(C(=O)OCC)s2)cc1 (stereo not drawn)	-10%	-2%
CCCCCCn1cc(CN2CC(N3CCSCC3)CS2(=O)=O)nn1 (stereo not drawn)	37%[activator]	5%
COc1ccc(-c2csc3nc[nH]c(=O)c23)cc1	4%	-5%
Cc1cc(C)c(NC(=O)Cn2c(=O)n(Cc3ccc(C(=O)NCc4ccc5c(c4)OCO5)cc3)c(=O)c3ccccc32)c(C)c1	?	?
Cc1cc(SCC(=O)NN)c2cc(Br)ccc2n1	-11%	-14%
CC(C)CCNC(=O)CCn1c(=S)oc2ccccc21	i	2%
COc1ccc(-c2nn(-c3ccc(C)c(Cl)c3)c3c2cnc2cc(OC)c(OC)cc23)cc1	-3%	2%
O=c1[nH]c(Cl)ccc1CN1CCOCC1	-8%	2%
COc1ccc(C(Nc2ccccn2)c2c(NC(=O)c3ccco3)sc(C)c2C)cc1 (stereo not drawn)	-13%	-12%
COc1ccccc1C(=O)NC(=O)COC(=O)CCOc1cc(C)ccc1C	i	-2%
CCc1ccc(-n2nc3cc(C)c(NC(=O)c4cc(OC)cc(OC)c4)cc3n2)cc1	-18%	-16%
COc1ccccc1CCC(=O)OCC(=O)NC1CCCC1	i	-11%
SMILES	Vaccinia mCherry	VACV Venus inh
Cc1nn(C)c(C)c1CCC(=O)O	10%	3%
Cc1cc(C)c2oc(C(=O)Nc3sc4c(c3C(=O)NCc3ccco3)CCCC4)cc(=O)c2c1	12%	-5%
CCN(CC)CCOC(=O)c1ccc(N=Cc2c(O)[nH]c(=O)[nH]c2=O)cc1	-9%	-3%
O=C(NCC[C@@H]1CC[C@@H](NS(=O)(=O)c2ccccc2)[C@@H](CO)O1)c1cc(Cl)cc(Cl)c1	-3%	-23%
O=C(Nc1ccc(F)c(F)c1)c1ccccc1	i	-12%
Cc1cc([N+](=O)[O-])ccc1NC(=O)CSc1nncn1-c1ccccn1	-13%	-8%
CCOc1ccc(-n2c(O)c(/C=N/Nc3nnc(C)c(=O)[nH]3)c3ccccc3c2=O)cc1	-20%	-6%
O=C(COC(=O)c1ccccn1)Nc1ncc(C(F)(F)F)cc1Cl	/	-3%
CCCCn1c(NCCN(C)C)nc2c1c(=O)[nH]c(=O)n2C	-9%	-7%
Nc1nc(N)nc(-c2ccc(Oc3ccccc3)cc2)n1	i	-10%
Cc1ccc(CN2CCCC(C(=O)c3cccc(C(F)(F)F)c3)C2)o1 (stereo not drawn)	-14%	-16%
C/C(=N\NC(=O)c1c(Cl)c(C)nn1C)c1cccc(NC(=O)c2cccc(F)c2)c1	?	?
CCS(=O)(=O)NCCc1cc2cc(C)c(C)cc2[nH]c1=O	-3%	-9%
COc1ccc(-c2csc(NC(=S)NC(=O)/C=C/c3ccco3)n2)cc1OC	?	?
Cc1cc2cc(CN(Cc3ccco3)C(=O)NCc3ccccc3)c(=O)[nH]c2cc1C	/	-23%
COCCNC(=O)Nc1ccc2nc(-c3cccs3)c(-c3cccs3)nc2c1	-25%	-14%
O=c1[nH]c(C2CCN(S(=O)(=O)c3ccc(C(F)(F)F)cc3)CC2)nc2c1nnn2Cc1cccc(F)c1	-20%	-17%
CC1=C([N+](=O)[O-])C(c2ccccc2Cl)NC(=O)N1C (stereo not drawn)	0%	-5%
O=C(NC1=NCCCCC1)c1cccc2ccccc12	-2%	-2%
C[C@]12CC[C@@H](O)CC1=CCC1C2CC[C@@]2(C)C1C[C@@H](F)[C@H]2O (stereo partly drawn)	-13%	2%
Cc1ccc(-c2nn3c(C)nnc3c3ccccc23)cc1S(=O)(=O)NCCO	-7%&-3%	-8%&0%
Cc1ccc(NC2CCCN(C(=O)C3CCCC3)C2)cc1C (stereo not drawn)	-19%	-7%
COc1ccc(CNC(=O)c2cc(=O)c3cc(C)cc(C)c3o2)cc1	-11%	-12%
OCC[C@H]1C[C@@H](O)[C@H](O)[C@]2(Cc3ccccc3CO2)O1	i	-6%
O=C(Cn1cnc2ccccc2c1=O)NCC(=O)N1CCN(c2ccccn2)CC1	/	-23%
SMILES	Vaccinia mCherry	VACV Venus inh
C#CCOCCOCCOCCNc1nc(N2CCOCC2)nc(N2CCN(C(=O)CCCCCCCCCCNC(=O)[C@H](CO)n3cc(CCCCCN)nn3)CC2)n1	i	-17%
COc1ccsc1C(=O)NCCN1CCOCC1	i	-5%
CCCCN(CC)S(=O)(=O)c1ccc2c(c1)CCCN2C(C)=O	-24%	-28%
CC(C)[C@H](Nc1ccc(S(=O)(=O)N2CCOCC2)cc1[N+](=O)[O-])C(=O)OCC(N)=O	-19%	-3%
CC(C)CNC(=O)C1(C)CCCN1C(=O)c1ccc2c(c1)CCO2 (stereo not drawn)	30%	-7%
COc1ccc(/C=C/c2ccccc2)cc1[C@H]1[C@@H]2C=CCC[C@@]2(C)C(=O)N1Cc1ccccc1	i	-21%
COc1ccc(CNC(=O)C2CCN(Cc3nc(-c4ccc(OC)c(OC)c4)oc3C)CC2)cc1	-7%	2%
CC(C)C[C@@H]1NC(=O)[C@H](CO)NC(=O)c2cc([N+](=O)[O-])cc(I)c2OCC[C@@H](C(N)=O)NC1=O	i	-7%
O=c1oc2ccccc2c2oc3cc(O)c(O)cc3c12	?	-29%
Cc1ccc(S(=O)(=O)Nc2ccc3ccccc3c2[N+](=O)[O-])cc1	-17%	-13%
CC1CCC2(CC1)NC(=O)N(CC(=O)Nc1ccc(N3CCCCC3)cc1)C2=O (stereo not drawn)	-14%	-14%
COCCCn1c(=O)c2sccc2n2c(CCCC(=O)NCc3ccccc3OC)nnc12	-3%	-2%
CCOc1ccccc1N1CCN(C(=O)NC2CCCCC2)CC1	i	-15%
Cc1cccc(C)c1N/C=C/c1onc(C)c1[N+](=O)[O-]	/	-7%
CCc1ccc(NC(=O)COC(=O)C2(c3ccc(Cl)cc3)CCCC2)cc1	i	-21%
Cc1cccc(NC(=O)c2ccc(OCc3c(C)noc3C)cc2)c1C	-29%	?
Cc1ccccc1-n1c(Cn2c(=O)sc3ccccc32)nnc1SCC(=O)N1CCOCC1	1%	-2%
CC(C)(C)C(=O)N1CCN(c2ccc(NC(=O)c3ccco3)cc2)CC1	-7%	-15%
c1ccc(CCNCc2ccccc2)cc1	-19%	-12%
CC(C)c1ccc2[nH]c3c(c2c1)CCCC3=O	-21%	-18%
CCOc1ccc(NC(=O)COC(=O)c2ccccc2OCc2ccccc2Br)cc1	-19%	-16%
O=C(Nc1ccc(NC(=O)c2ccccn2)cc1)C(=O)Nc1ccc2c(c1)OCCO2	i	4%
O=C1C2(CCCC13COC(c1ccc(O)cc1)OC3)COC(c1ccc(O)cc1)OC2 (stereo not drawn)	-4%[7.34 µM]	0%[7.34 µM]
O=C(Nc1ccc2c(c1)OCCO2)c1cccc(C(=O)Nc2ccc3c(c2)OCCO3)c1	-13%	-10%
CCC(NS(=O)(=O)c1ccc(C)cc1)C(=O)N1CCOCCOCCOCCOCC1 (stereo not drawn)	-2%	-4%

In another format: results already given
Each structure is followed by: Vaccinia mCherry, VACV Venus inh
- COCCC(=O)N1CCC(Oc2ccc(C(=O)NCc3ncc(C)[nH]3)cc2)CC1
    -11%, -14%
- COCC(=O)N(Cc1cc2ccc(C)c(C)c2n2nnnc12)C1CCCC1
    -11%, -10%
- O=C(C[n+]1ccc(/C=C/c2c[nH]c3ccccc23)c2ccccc21)c1ccccc1
    -14%, -4%
- Cc1ccc(/C=C/C(=O)OCC(=O)NCc2ccccc2)o1
    i, -10%
- CC1=NC(C)(C)CC2CCC(O)C12 (stereo not drawn)
    -14%, -1%
- O=C1Nc2ccccc2C1=Nc1ccc(-c2nnc3n2CCCCC3)cc1
    ?, 3%&10%

Other compounds:
SMILES	Vaccinia mCherry	VACV Venus inh
C/C=C/c1ccccc1OCc1ccc(C(=O)O)o1	-13%	-10%
c1ccc(Cc2nnc3sc(Nc4ccccc4)nn23)cc1	i	-17%
CCOc1cc(C)nc(N2CCC(C(=O)NC3CC3)CC2)n1	i	-1%
COc1ccccc1NC(=O)CN(Cc1ccco1)C(=O)c1cc(Cl)c(OC)c(OC)c1	?	-14%
Cn1nnc(NC(=S)NC(=O)c2ccco2)n1	i	-7%
O=C1NC[C@@H](CCCCN2CCN(CC3CCCCC3)C(=O)C2=O)N(Cc2ccccc2)C1=O	0%	3%
COc1cc(OC)cc(C(=O)N/N=C(\C)CC(=O)Nc2ccccn2)c1	-2%	-22%
Cc1ccc(S(=O)(=O)NCC(=O)NCC2CCCCC2)cc1C	i	-11%
Cc1ccc2nc(-c3ccc4c(c3)OCCO4)cn2c1	i	-18%
CCCCn1c(N)c(N(CCOC)C(=O)CSc2n[nH]c(-c3ccc(C)cc3)n2)c(=O)[nH]c1=O	-10%	-12%
